# Sa ugtP lethal = growth inhibition of ugtP-null S. aureus, primary screen, RN4220 ugtP deletion, OD600; growth inhibition, % (test concentration not listed); 16 h; some inactives read as strong as hits; AID 1259309, 2017; 330,000 compounds, 0.54% hits;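 active = z-score under -3 and OD600 up to 0.15 on both plates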;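 note: plate controls were untreated wells for no effect and antibiotic for full effect; wells of about 80 µL received 100 nL stock; the first replicate is given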
# RN4220 kill = growth inhibition of S. aureus RN4220, primary screen, OD600; 16 h; inhibition, % (no concentration beside the values); 330,000 compounds, 0.33% hits; AID 1259311, 2017;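 active = z-score of -3 or lower and OD600 up to 0.18 on both plates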;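 note: plate controls were untreated cells for no effect and reference antibiotic for full effect; stock transfer was 100 nL into about 80 µL; one replicate is shown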
# BJeLR viability = MLPCN primary cell-based screen for lethality selective to Ras in HRASV12 cells | BJeLR (HRASV12) viability, CellTiter-Glo ATP luminescence, 48 h; reference of the scale not given here | 300,000 compounds, 0.17% hits | inhibition, % (test concentration not listed);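 active = replicate mean above 50%; inconclusive = above 50% but judged a plate artefact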;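 note: 50 nL library stock added to about 25 µL; numbers are from one replicate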
# Bead autofluor = compound fluorescence in toxin protease inhibitor counterscreen; 360,000 compounds, 3.1% hits; fluorescence intensity (concentration not given with the values); AID 624483; compound autofluorescence counterscreen, microsphere flow cytometry; hits give high values;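 active = at least 3 SD above the mean of all compounds, about 16000 in these data; inconclusive = too few beads counted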;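 note: 100 nL of 1 mM stock went into each well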
# Mtb hypoxia rep = PubChem AID 1159583. M. tuberculosis hypoxia-regulated fluorescent reporter, fluorescence. fluorescence inhibition, % (no concentration beside the values). 300,000 compounds, 0.1% hits;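 active = 35 to 45% if threefold the growth effect, above 45% if 1.5-fold the growth effect; inactive = the rest, general growth blockers included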;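 note: wells of about 50 µL received 100 nL stock; 0% = vehicle wells and 100% = reference inhibitor wells; whole bacteria with a GFP reporter of the hypoxia response; strong numbers were not always called active; many hits fall short of the cut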
# PrP 5UTR inh = inhibition of PrP 5' UTR reporter expression. cell-based PrP 5' UTR mRNA reporter, plate reader. inhibition, % (no concentration beside the values). 340,000 compounds, 0.35% hits. AID 488862, 2010;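 active = every replicate at 50% or more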;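 note: 0 = median of the neutral control wells; tested in H4 reporter cells; numbers are from one replicate; inactives centre near -14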
# Mtb hypoxia rep growth = second read-out of Mtb hypoxia rep, no call of its own (marks repeat the call); growth inhibition, %; measured here: M. tuberculosis growth (absorbance);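 0% = vehicle and 100% = reference antibiotic; read after six days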
# Active calls of the source: *; u = inconclusive; x = not tested or not shown.
structure	Bead autofluor	PrP 5UTR inh	BJeLR viability	Mtb hypoxia rep	Sa ugtP lethal	Mtb hypoxia rep growth	RN4220 kill
Cc1ccc(-n2[nH]c(C)c(C=Nc3ccccn3)c2=O)cc1	x	x	x	7	2	8	1.1
CCn1c(SCC(=O)N/N=C/c2cccs2)nc2ccccc21	2454	-9	-1	x	x	x	x
CCc1ccc(NC(=O)C(=O)NCCN2CCN(S(C)(=O)=O)CC2)cc1	4085	-11	3	-6	-5	-20	-4.0
Cc1ccc(NC(=O)C2CCN(S(=O)(=O)c3ccc4[nH]c(=O)oc4c3)CC2)cc1F	6296	-9	-11	-8	0	-12	-0.5
O=Cc1cn(-c2ccccc2)nc1-c1ccncc1	4469	2	-1	-9	3	-3	2.3
CCN(CC)c1ccc(NC(=O)C2=CCN(S(=O)(=O)c3ccc(F)cc3)CC2)c(C)c1	5209	-8	3	x	8	x	1.8
Nc1nonc1-c1nc2ccccc2n1Cc1ccccc1	3086	-6	7	x	-2	x	0.1
Cc1ccc(Cl)cc1N1CCN(C(=O)C2CCN(S(=O)(=O)c3cnc[nH]3)CC2)CC1	4792	3	x	x	-2	x	-0.2
CN1CCN(CC#CCC2(O)c3ccccc3-c3ccccc32)CC1	4451	22	9	11	3	11	7.6
Fc1ccccc1-c1nc2c(s1)CCc1onc(-c3ccc(Br)cc3)c1-2	3015	-3	-2	2	4	4	-15
O=C(CCNS(=O)(=O)c1cccs1)NC1CCN(Cc2ccccc2)CC1	4647	-17	4	3	-2	5	4.5
CC(C)C(=O)Nc1ccc(Cl)cc1-c1nc2ccccc2[nH]c1=O	3377	-9	7	0	10	11	5.2
Nc1nc(-c2ccc(-n3nncc3-c3ccco3)cc2)cs1	x	x	4	-1	-1	-3	22
C=CCc1ccc(OCC(O)CN2CCC(Cc3ccccc3)CC2)c(OC)c1 (stereo unspecified)	2677	6	9	x	-11	x	-0.6
COc1ccc2[nH]c(C(=O)N/N=C/c3ccc(O)cc3O)cc2c1	4230	35	38	x	x	x	x
Cc1c(C(=O)NC2CCCc3ccccc32)oc2ccccc12 (stereo unspecified)	3201	-7	5	x	5	x	-8.7
Cc1ccc(S(=O)(=O)N2C(c3ccc(Cl)c(Cl)c3)CC=C(C(=O)O)C2c2ccccc2)cc1 (stereo unspecified)	x	x	x	7	90*	3	28
Cc1ccc(Cn2nnc3c(=O)[nH]c(C4CCN(S(=O)(=O)c5cc(C)ccc5C)CC4)nc32)cc1	3275	-5	9	-3	-7	3	-19
COc1ccc(-c2ccc(C)cc2)cc1[C@H]1[C@@H]2C=CCC[C@@]2(C)C(=O)N1Cc1ccccc1	4129	-16	-7	x	x	x	x
NC12CCc3c(no[n+]3[O-])C1(O)CC(c1ccccc1)=[N+]2[O-] (stereo unspecified)	7865	-7	0	15	1	11	5.1
CC(C)(C)NC(=O)C(c1ccco1)N(C(=O)Cn1nnc(-c2ccc(F)cc2)n1)c1ccccc1 (stereo unspecified)	x	x	x	-5	-7	12	0.3
Cc1ccc(S(=O)(=O)N2CCN(C(=O)c3ccccc3Cc3ccccc3)CC2)c(C)c1	5512	-21	7	0	-2	-1	19
CCC(C(=O)NCc1ccco1)N(C(=O)CNS(=O)(=O)c1ccccc1)c1ccc(OC)cc1 (stereo unspecified)	8087	-4	-22	2	1	1	-0.7
COc1ccc(CCNC(=S)NC(=O)c2ccccc2)cc1OC	23568*	-30	-12	3	10	1	6.2
CC(=O)C1C(=O)c2c(cccc2[N+](=O)[O-])C1=Nc1ccc(S(N)(=O)=O)cc1 (stereo unspecified)	2001	-24	6	11	3	6	3.1
COCCNC(=O)c1ccc(C(=O)NCCOC)s1	11220	x	7	3	5	2	0.5
Cc1ccc(SCC(=O)NNC(=O)c2cncc(Br)c2)cc1	3900	-30	x	-2	7	5	0.7
Cc1cc(Oc2ncccc2[N+](=O)[O-])c2cc(Cl)ccc2n1	5808	-6	9	10	5	12	2.9
CC(=NNC(=O)c1ccc([N+](=O)[O-])cc1)c1cccc([N+](=O)[O-])c1	x	x	x	1	2	2	4.6
COCCNCC(=O)Nc1ccccc1Sc1ccccc1	2646	-29	14	-4	9	-5	2.2
Cc1cc(C)cc(NC(=S)/C(=C(\[O-])c2ccc(Cl)cc2Cl)[n+]2ccc(C(C)(C)C)cc2)c1	4901	-8	4	-1	10	-12	7.5
COc1cc(OC)c(C2=NOC(C(=O)Nc3cc(C)nn3-c3ccccc3)C2)cc1Cl (stereo unspecified)	9549	-2	3	3	3	-4	7.7
Cn1c(SCc2ccccc2F)nnc1-c1ccccn1	2236	-77	0	8	1	11	2.4
CCOc1ccc(S(=O)(=O)NN=C(C)c2cccnc2)cc1	4773	-14	x	2	10	0	5.4
O=C(Cc1cccs1)N1CCCC(c2nc3c(nnn3Cc3cccc(Cl)c3)c(=O)[nH]2)C1 (stereo unspecified)	15188	-4	-15	-9	2	6	-6.9
CC(O)[C@H]1CNCCN1CCc1cc(C(F)(F)F)cc(C(F)(F)F)c1 (stereo partly specified)	3247	8	9	x	x	x	x
CC(C)c1ccc(NC(=O)COC(=O)[C@H](CCC(N)=O)NC(=O)c2ccc(F)cc2)cc1	2172	-5	-11	x	x	x	x
C/C(=N\N1C(=O)c2ccccc2NC1c1ccco1)c1ccccc1O (stereo unspecified)	4465	-62	20	x	x	x	x
CCOC(=O)Cn1c(=O)oc2cc(S(=O)(=O)NC(C)(C)CC)ccc21	4857	-2	2	4	2	-4	7.3
Cc1ccc2nc(SCC(=O)Nc3oc(C)c4c(C)n[nH]c(=O)c34)[nH]c2c1	3212	-10	x	-4	-1	-1	-0.5
O=C(O)c1cccc(Cn2c(Cl)c(C=NNc3ccccc3)sc2=O)c1	x	x	x	-2	97*	3	94*
CSCCC(NC(=O)c1ccccc1)C(=O)O (stereo unspecified)	5025	-5	-5	-10	0	2	0.2
Clc1ccc(OCC#CCN2CCCCCC2)cc1	3352	-68	0	9	5	6	5.3
O=C(CN1C(=O)NC2(CCCCCC2)C1=O)NCc1ccco1	3688	-5	-9	4	10	-3	5.8
CC(Cc1ccccc1)NC(=O)CN1C(=O)c2ccccc2S1(=O)=O (stereo unspecified)	u	-1	-4	5	2	12	0.1

# Rewritten with each value named: two of the compounds above.
O=C(CN1C(=O)NC2(CCCCCC2)C1=O)NCc1ccco1
- Bead autofluor = 3688
- PrP 5UTR inh = -5
- BJeLR viability = -9
- Mtb hypoxia rep = 4
- Sa ugtP lethal = 10
- Mtb hypoxia rep growth = -3
- RN4220 kill = 5.8
CC(Cc1ccccc1)NC(=O)CN1C(=O)c2ccccc2S1(=O)=O (stereo unspecified)
- Bead autofluor = u
- PrP 5UTR inh = -1
- BJeLR viability = -4
- Mtb hypoxia rep = 5
- Sa ugtP lethal = 2
- Mtb hypoxia rep growth = 12
- RN4220 kill = 0.1

# A few values from the results shown:
# Cc1ccc(NC(=O)C2CCN(S(=O)(=O)c3ccc4[nH]c(=O)oc4c3)CC2)cc1F in Bead autofluor = 6296
# CC(C)c1ccc(NC(=O)COC(=O)[C@H](CCC(N)=O)NC(=O)c2ccc(F)cc2)cc1 in BJeLR viability = -11

# (cont.)
structure	Bead autofluor	PrP 5UTR inh	BJeLR viability	Mtb hypoxia rep	Sa ugtP lethal	Mtb hypoxia rep growth	RN4220 kill
CCc1noc(C)c1C(=O)NNC(=O)c1ccc(N(CC)CC)cc1	3946	-4	x	6	9	0	-2.1
CC(=O)N1CCN(S(=O)(=O)c2cccc(C(=O)Nc3ccc(OC(F)F)cc3)c2)CC1	4527	-12	0	1	10	5	0.5
Cc1ccc(C(C2C(=O)CC(C)(C)CC2=O)C2C(=O)CC(C)(C)CC2=O)s1	3011	-13	6	x	2	x	3.2
CCN(CC)c1ccc(/C=N/N2C(C)CCCC2C)c(O)c1 (stereo unspecified)	6132	-31	-4	x	x	x	x
CC(CC(=O)Nc1ccc(Cl)cc1Cl)=NNC(=O)C(=O)NCCO	x	x	x	2	16	3	8.9
Cc1ccc(C(=O)N(CN2CCCC2=O)c2ccccc2)cc1	u	-68	-1	4	2	-1	4.6
Cc1oc(-c2cc(Cl)cc(Cl)c2)cc1C(=O)NCCc1ccccc1	1974	-4	0	8	44	4	30
O=C(O)C1CCN(C(=O)COc2ccc3c(c2)oc(=O)c2ccccc23)CC1	5016	-29	-3	x	7	x	5.9
COC(=O)c1[nH]c2ccc(Cl)cc2c1NC(=O)CCN1CCOCC1	4380	-31	-7	x	-4	x	-0.4
Cc1ccc(C(=O)Nc2cccc(C(=O)NN=Cc3ccc(F)cc3)c2)cc1	x	x	x	2	13	-2	0.9
COCCCN1C(=O)c2ccc(C(=O)OCC(=O)NCc3ccccc3OC)cc2C1=O	5954	-10	2	x	x	x	x
CCOCCCNC(=O)c1ccc2c(c1)N=C(CC)c1cc(Br)ccc1S2	4577	-6	50	13	9	1	2.0
N#CC(=NNc1cccc([N+](=O)[O-])c1)C(=O)c1ccc(Br)cc1	x	x	x	19	89*	23	94*
COC(=O)/C(C#N)=C/c1c(Oc2cccc(C)c2)nc2ccccn2c1=O	4412	-20	-2	11	4	5	5.4
COc1ccc(/C=N/NC(=O)C(=O)N2CCCC2)cc1OC	2105	-19	-20	x	x	x	x
COc1ccc(NC(=O)Nc2cccc3c2O[C@H](CN(C)S(=O)(=O)c2ccc(F)cc2)[C@@H](C)CN([C@H](C)CO)C3=O)cc1	4206	-24	x	10	-2	11	-12
CC(=O)c1c(C)[nH]c(C(=O)OCC(=O)Nc2cccc(S(=O)(=O)N3CCCC3)c2)c1C	7037	-6	0	0	2	2	8.4
CCOC(=O)c1c(NC(=O)CSc2nnnn2C)sc(CC)c1C	6224	-38	1	-1	-1	-6	5.3
CCOC(=O)c1c(-c2ccccc2)csc1NC(=O)C1CCCO1 (stereo unspecified)	8530	-15	6	-4	1	1	3.0
CCCCCCCCC(NC(=O)c1ccc(C#N)cc1)C(=O)NCCC (stereo unspecified)	3992	-5	x	6	-3	2	-15
COc1cc2c(cc1OC)C(=O)N1C3c4ccccc4OCC3C(c3ccccc3)[C@]1(C)C(=O)N2 (stereo partly specified)	x	x	x	8	-2	2	6.4
CCNC(=S)N/N=C(\C)c1cccc([N+](=O)[O-])c1	2477	-5	-3	x	x	x	x
C#CCOCCOCCOCCNc1nc(N2CCN(C(=O)C(C)n3cc(CCCN=C(N)N)nn3)CC2)nc(N2CCN(C(=O)C(C(C)O)n3cc(CCCCN)nn3)CC2)n1 (stereo unspecified)	x	x	x	6	-3	11	3.2
O=C(CC1(O)C(=O)Nc2ccccc21)c1ccc(-n2cnnn2)cc1 (stereo unspecified)	4270	-16	6	2	11	9	2.5
O=C1c2ccccc2C(Nc2ccc3c(c2)OCO3)N1Cc1ccc2c(c1)OCO2 (stereo unspecified)	6015	-6	-6	4	-9	12	-12
NC(=S)Nc1cccc2[nH]ccc12	2229	-40	-4	-4	2	-2	2.4
CSc1ncccc1C(=O)NCC(c1ccco1)N1CCCCC1 (stereo unspecified)	u	-4	x	-1	2	4	6.9
COCC(CN1CCN(C2=NS(=O)(=O)c3ccccc32)CC1)OC(=O)c1ccc(OC)cc1 (stereo unspecified)	3635	-23	4	10	1	3	5.3

# Of the compounds above, these contain a nitro group on carbon:
structure	Bead autofluor	PrP 5UTR inh	BJeLR viability	Mtb hypoxia rep	Sa ugtP lethal	Mtb hypoxia rep growth	RN4220 kill
CC(=O)C1C(=O)c2c(cccc2[N+](=O)[O-])C1=Nc1ccc(S(N)(=O)=O)cc1 (stereo unspecified)	2001	-24	6	11	3	6	3.1
Cc1cc(Oc2ncccc2[N+](=O)[O-])c2cc(Cl)ccc2n1	5808	-6	9	10	5	12	2.9
CC(=NNC(=O)c1ccc([N+](=O)[O-])cc1)c1cccc([N+](=O)[O-])c1	x	x	x	1	2	2	4.6
N#CC(=NNc1cccc([N+](=O)[O-])c1)C(=O)c1ccc(Br)cc1	x	x	x	19	89*	23	94*
CCNC(=S)N/N=C(\C)c1cccc([N+](=O)[O-])c1	2477	-5	-3	x	x	x	x

# High-throughput results (PubChem)
